gsp antagonist = gsp mutant antagonism. gsp-mutant cells, cAMP HTRF, 30 min; control for the full effect not named in the record. Potency, µM (highest dose often 76.9 µM), for inactives: at the top dose activity change, negative = inhibition, most hits filed as inhibitors. 340,000 compounds, 0.4% hits; active = falling curve of any shape with a large fitted effect; inconclusive = falling curve, mostly with a smaller effect; inactive = flat or rising curve; cell line not stated here;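 note: intracellular cAMP measured with PDE inhibitor Ro 20-1724 present during compound exposure; potency is the fitted concentration of half-maximal effect; % is set by controls: 0 for no effect and ±100 for the full control effect; nearly all actives have a fitted effect of over 65% in size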
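Cells in G418 medium, seeded 16-24 h, 37C; buffer exchange to DPBS + 1 mM CaCl2, 0.5 mM MgCl2, 0.05% BSA; cpds in DMSO + […] (300 uM stock), 30 min 37C; HTRF cAMP detection.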
ClpP mod = qHTS Assay for Activators of ClpP. Potency, µM (doses to about 57.5 µM), for the others: at the highest dose activity change, negative = active. 340,000 compounds, 1.9% hits. ATP-dependent Clp protease proteolytic subunit (Bacillus subtilis (strain 168)), P80244. purified B. subtilis ClpP, FRET peptide cleavage, 20 min; active = well fitted falling curve with a large enough effect; inconclusive = small, poorly fitted or top-dose-only effect; inactive = no such curve, though single readings can be large or run the other way; note: potency is the fitted concentration of half-maximal effect; the source files actives as falling curves though it sought activators and does not explain the sign; nearly all actives have a fitted effect of over 65% in size; many hits overshoot -100%
Target sequence (P80244 whole entry, looked up): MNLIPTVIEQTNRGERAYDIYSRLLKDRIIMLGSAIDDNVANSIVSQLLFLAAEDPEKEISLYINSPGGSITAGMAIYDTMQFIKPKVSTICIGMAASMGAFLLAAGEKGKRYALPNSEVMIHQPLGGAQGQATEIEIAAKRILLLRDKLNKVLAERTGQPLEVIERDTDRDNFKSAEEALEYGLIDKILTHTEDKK
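Purified B. subtilis ClpP, 10 microg/mL final in Tris/HCl pH8 with KCl, BSA, glycerol and Tween-20, cleaved an Abz/nitrotyrosine-quenched decapeptide. Fluorescence (ex 320, em 430) was read at 0 and 20 min at room temperature. Delta was normalized to 5.8 microM ADEP and DMSO/no-enzyme controls.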
TRPML1 inh = inhibitors of human TRPML1 channel. 390,000 compounds, 0.02% hits. TRPML1-inducible cells, Ca2+ dye fluorescence, FDSS; stronger effect = lower value; inhibition of EC80 agonist-evoked calcium signal. activity change, negative = inhibition, % (concentration not given with the values). Q9GZU1; in the data active means activity change below about -50%; inconclusive means about -30% to -50%; inactive means above about -30%;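 note: stimulus is agonist 54-4 at its EC80 concentration; % is set by controls: 0 for no effect and ±100 for the full control effect; the text of the record puts the active cut at -80%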
Target sequence (Q9GZU1 whole entry, looked up): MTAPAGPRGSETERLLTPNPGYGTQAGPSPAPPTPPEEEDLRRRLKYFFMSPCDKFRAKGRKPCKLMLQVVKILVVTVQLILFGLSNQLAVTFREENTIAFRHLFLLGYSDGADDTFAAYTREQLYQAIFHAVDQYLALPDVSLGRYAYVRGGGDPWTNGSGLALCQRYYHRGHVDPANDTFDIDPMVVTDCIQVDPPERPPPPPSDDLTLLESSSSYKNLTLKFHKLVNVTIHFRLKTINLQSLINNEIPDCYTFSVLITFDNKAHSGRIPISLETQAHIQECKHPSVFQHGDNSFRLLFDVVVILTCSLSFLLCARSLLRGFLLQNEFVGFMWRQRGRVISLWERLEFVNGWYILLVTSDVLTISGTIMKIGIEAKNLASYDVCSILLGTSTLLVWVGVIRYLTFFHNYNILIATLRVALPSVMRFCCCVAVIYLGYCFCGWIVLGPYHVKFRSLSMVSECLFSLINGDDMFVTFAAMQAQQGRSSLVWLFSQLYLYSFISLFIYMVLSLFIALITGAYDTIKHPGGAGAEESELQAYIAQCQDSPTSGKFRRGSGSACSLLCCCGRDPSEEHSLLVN
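Calcium fluorescence in TRPML1-DL cells induced overnight with Tet: a 110 s read after compound pin addition, then a 110 s antagonist read after challenge with 54-4 at 4 uM final (EC80).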
gsp agonist = activates gsp, the McCune-Albright syndrome mutation | gsp mutant cells, cAMP HTRF, 30 min; control for the full effect not named in the record | Potency, µM (top dose mostly 76.9 µM), for the others: top-dose activation (cAMP increase), actives largely listed as activators | 340,000 compounds, 0.13% hits | AID 624287; active = well fitted activation curve with a large enough effect; inconclusive = small, poorly fitted or top-dose-only effect, or another doubt; inactive = no such curve, though single readings can be large or run the other way; cell line not stated here;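 note: phosphodiesterase inhibitor Ro 20-1724 added with compounds to block cAMP breakdown; potency is the fitted concentration of half-maximal effect; nearly all actives have a fitted effect of over 60% in size; about a fifth of the inactives were tested at one dose only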
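Cells in DMEM/10% FBS with G418 were pretreated with compounds in DMSO plus […] (300 uM stock) for 30 min at 37C. cAMP was measured by HTRF (cAMP-d2 plus anti-cAMP antibody-K) after 30 min at room temperature.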
TRPML1 agonist = agonists of human TRPML1 channel | Q9GZU1 | TRPML1-expressing cells, Ca2+ dye fluorescence, FDSS; host cell line not named in the record; reference of the full effect not given here | activation, % (no concentration beside the values) | 410,000 compounds, 0.12% hits | AID 624414; in the data active = activation above about 50%; inconclusive = about 30% to 50%; inactive = below about 30%; note: 0% is about no effect; the text of the record puts the active cut at 80%
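Calcium fluorescence on an FDSS kinetic reader gave the read-out. Tet-induced TRPML1-DL cells were plated overnight, dye-loaded (Ca8 with quencher, 45-90 min, room temperature, dark), then read 110 s after compound addition, and again 110 s after 4uM final 54-4 (EC80).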
Menin-MLL FL inh = inhibitors of human menin-MLL interaction, wild-type MLL peptide; Fluorescence polarization, fluorescein-MLL peptide displacement from menin; FP activity change, % at 61.4 µM; 290,000 tested, under 10 active; AID 1766; inconclusive = falling polarisation curve, or a change in total fluorescence; inactive = total fluorescence flat and polarisation flat or rising; no compound was filed as active; the % refers to the polarisation; negative = inhibition;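 note: % of control where 0% means no effect; inhibitors lower the polarisation; unlabelled MLL peptide was the positive control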
* marks the source's active call; other numbers are inactive results; ? = inconclusive; . = no result given; & = joins results of further samples; [ ] = dose if it differs, or a comment.

compound	gsp antagonist	ClpP mod	TRPML1 inh	gsp agonist	TRPML1 agonist	Menin-MLL FL inh
O=C(c1cccnc1Nc1ccccc1F)N1CCOCC1	3.1%	.	2.3	?	0.6	0.9
CC(=O)Nc1ccc(NC(=O)CC2(CC(=O)N3CCOCC3)CCCC2)cc1	-6.3%	-1.1%	-6.8	10.3%[15.4 µM]	0.6	.
COc1ccccc1NC(=O)Cn1cc(C(=O)C(=O)N2CCOCC2)c2ccccc21	-31.1%	-22.8%	11.6	-0.3%	0.1	.
COC(=O)c1cc(-c2ccccc2)on1	7.5%	-1.2%	12.5	-0.4%	-0.9	1.3
C=CCn1c(C)cc(C(=O)CSc2nnc(Cc3ccccc3)o2)c1C	-9.7%	-0.2%	9.8	9.0%	2.3	-0.2
Cc1[nH]c(=O)c(C#N)c2c1CSC(C)(C)C2	6.3%	25.1µM*	-10.9	-6.3%	-0.2	2.4
CCOC(=O)N1CCN(C2=Nc3cccc4cccc2c34)CC1	-18.6%	-9.0%	8.5	-24.3%	3.1	?
Cc1csc(SCC(=O)Nc2nnc(C)s2)n1	0.3%	.	-19.5	-1.2%	-0.3	0.2
Cc1ccc(C(=O)NC(=S)Nc2ccccc2N2CCOCC2)cc1C	6.9%	1.4%	6.1	-22.6%[15.4 µM]	0.1	.
CC(=O)C(Cc1ccccc1)NC(=O)COC(=O)CCN1C(=O)C2CC=CCC2C1=O (stereo unspecified)	6.0%	-2.7%	-3.6	-6.1%[15.4 µM]	0.7	.
COc1cc(C2CC(=O)c3cnc(NC(C)=O)nc3C2)cc(OC)c1OC (stereo unspecified)	6.3%	0.2%	12.9	33.7%	0.6	6.2
NC(=O)NC(=O)COC(=O)c1ccccc1OCc1ccc(F)cc1	23.3%	-16.7%	-11.0	26.1%	-0.1	3.1
COCCn1c(COc2ccc(C)cc2)nc2ccccc21	-19.8%	-0.3%	9.9	-51.0%[inhibitor]	2.3	2.7
COc1cccc(Cn2c(=O)n(Cc3ccccc3)c(=O)c3c2c2cc(OC)ccc2n3C)c1	.	-17.2%	19.0	.	-0.2	.
COCCN1C(=O)N[C@@H](CCc2ccccc2)C(C(C)=O)=C1C	9.0%	0.4%	-5.0	-29.1%	-1.0	-1.5&-0.1
CCOc1ccc(/C=N/NC(=O)C2CCCC2)c(OCC)c1	-13.9%	-1.2%	11.9	-30.1%[inhibitor]	1.3	.
CC(C(=O)OCc1nnc(-c2ccccc2)o1)N1C(=O)c2ccccc2C1=O (stereo unspecified)	-9.9%	-1.4%	10.7	-31.9%[inhibitor]	2.2	1.6
CCN(CC)C(=O)NC1CC2CCCC(C1)N2Cc1ccccc1 (stereo unspecified)	6.1%	-2.2%	-8.1	14.0%	0.3	3.1
COC(=O)c1ccc(NC(=O)CN2CCN(S(=O)(=O)c3ccc(Br)cc3)CC2)cc1	-15.4%	-0.7%&-1.3%	-16.1&20.4	6.6%	-0.6&0.6	.
c1ccc(Cn2nnc3c(NCC4CCCO4)nc(C4CC4)nc32)cc1 (stereo unspecified)	-2.8%	0.0%	-16.9	-30.2%[inhibitor]	4.5	-5.1
COC(=O)c1c(NC(=O)c2cccnc2)sc(C)c1C	-2.0%	-1.4%	5.2	-1.8%	0.3	1.3
Cc1nn(-c2ccccc2)cc1/C=N/NS(=O)(=O)c1ccccc1	-10.9%	.	1.9	1.7%	0.7	0.8
Cc1cc(=O)n2[nH]c(-c3ccc(C(C)(C)C)cc3)cc2n1	-12.5%	?	3.3	3.0%	0.3	2.0&-1.7
S=C(NC1CCCCC1)NN(c1ccccc1)c1ccccc1	18.8%	-0.8%	-1.7	23.2%	0.9	5.5
Cc1cccc(C(=O)OC(C)C(=O)NCC2CCCCC2)c1O (stereo unspecified)	5.2%	-21.4%	-9.9	-23.7%	0.5	.
CCCCOc1ccc(C(=O)NC)cc1	-2.9%	-3.3%	7.8	-28.4%	1.2	3.3
Cc1ccc(C)c(CSc2nnc([C@@H](N)C(C)C)o2)c1	4.4%	0.7%	0.6	?	-0.7	-0.8
Cc1nn(-c2cc(C(F)(F)F)ccc2Cl)c2nc(C(Cl)(Cl)Cl)[nH]c(=O)c12	-8.4%	.	-3.2	-3.4%[15.4 µM]	1.0	6.0
O=C(OCC(=O)N1CCCC1=O)c1cc(S(=O)(=O)N2CCOCC2)ccc1Cl	-6.6%	-1.4%	-14.1	8.0%[15.4 µM]	0.5	.
CCN(CC)C(=O)CC(c1ccc(F)cc1)c1ccc(OC)cc1 (stereo unspecified)	-6.5%	-0.1%	14.1	?	1.7	2.6
Cc1cc(-c2ccco2)n(CC(=O)NCc2ccccc2)n1	4.7%	-0.9%	8.5	-14.4%	-0.2	0.6
NC(=O)CC(NC(=O)Cc1ccc(Br)cc1)c1ccc(NCc2ccc(F)c(F)c2)c([N+](=O)[O-])c1 (stereo unspecified)	-2.9%	1.3%	38.5	.	-0.2	-1.9
Cc1cc2c(cc1S(=O)(=O)N1CCC(C(N)=O)CC1)OCC(=O)N2	.	-1.6%	13.4	.	0.4	.
Cc1ccc(Cl)cc1NC(=O)CN1C(=O)NC(C)(C2CC2)C1=O (stereo unspecified)	13.2%	-0.8%	-7.7	-62.6%[inhibitor]	-0.3	.
COc1cccc(CNC(=O)CCCc2nnc3n(C)c(=O)c4sccc4n23)c1	8.1%	-5.1%	-17.1	?	-1.3	.
Cc1cccc(N2CCN(C(=S)Nc3ccc4nc(N5CCOCC5)cc(C)c4c3)CC2C)c1 (stereo unspecified)	-3.4%	3.3%	-13.3	?	1.3	-2.9
CCOc1ccc2[nH]c(=O)c(CN(Cc3nnnn3Cc3ccccc3)CC3CCCO3)cc2c1 (stereo unspecified)	-13.2%	-16.5%	-11.5	3.5%	-0.1	5.4
CC1CN(S(=O)(=O)c2cccs2)CC(C)O1 (stereo unspecified)	2.3%	0.0%	13.6	-17.0%	0.4	3.5
N#C/C(=C/c1ccc2c(c1)OCO2)C(=O)NCCc1c[nH]c2ccccc12	-6.7%	-0.4%	-3.7	?	0.9	-2.2
CC1CCN(S(=O)(=O)c2ccc(C(=O)OCc3ccc4c(c3)OCO4)cc2)CC1	5.3%	0.7%	-1.3	-1.6%	-0.1	3.8
COc1cc(NS(=O)(=O)c2ccc(NC(=O)COc3ccc(C)cc3)cc2)nc(OC)n1	-18.3%	-4.6%	0.8	0.9%	-0.8	-0.8
CCc1nc2ccc(C(=O)NCCCN(C)C)cn2c1N(C)CCCc1ccccc1	.	-2.5%	2.1	.	-0.7	.
O=C(NCc1cccc(C(F)(F)F)c1)C1CCCN(c2cnccn2)C1 (stereo unspecified)	4.0%	-13.5%	4.6	17.0%	-0.4	3.9
CCN(CCS(=O)(=O)c1ccc(Cl)cc1)C(=O)Nc1ccc(Cl)cc1	-1.8%	-1.0%	-1.4	14.9%	3.0	1.8
Cn1cccc1/C=C1\CCc2ccccc2C1=O	-12.8%	.	0.9	-6.8%[15.4 µM]	0.8	?
O=C1CC(c2cccc(Cl)c2)c2cc3c(cc2N1)CCC3 (stereo unspecified)	-3.6%	-0.6%	7.4	-38.9%[inhibitor]	2.0	6.4
CCOC(=O)c1ccc(NC(=O)c2c(NCc3cc(OC)c(OC)cc3OC)sc3c2CCCC3)cc1	.	-6.6%	24.1	.	-0.2	.
O=C(O)c1ccccc1C1=Nc2ccc(O)cc2Oc2cc(O)ccc21	10.5%	14.1µM*	-3.5	0.1%	5.9	?
CC(C)c1ccc(/C=C/C(=O)NCCCc2ccccc2)cc1	5.2%	-3.1%	9.6	12.9%	2.6	-2.0
COc1ccc(NC(=O)CN2CCN(Cc3ccc(F)cc3)S2(=O)=O)cc1Cl	.	1.0%	27.3	.	0.9	.

Next structures.
compound	gsp antagonist	ClpP mod	TRPML1 inh	gsp agonist	TRPML1 agonist	Menin-MLL FL inh
CC(C(=O)c1ccc(Br)cc1)[n+]1cccc2ccccc21 (stereo unspecified)	2.7%	-14.2%	4.1	-29.8%	6.4	?
CCCCNC(=O)[C@@](CC)(ONc1ccccc1C(F)(F)F)c1cccc2ccccc12	1.1%	-2.2%	-25.4	29.5%	0.7	.
CC(=O)c1ccc(C(=O)N2CCCC(CO)(Cc3ccccc3C)C2)s1 (stereo unspecified)	1.6%	0.4%	3.9	16.9%[15.4 µM]	1.5	-2.5
Cc1cc(NC(=O)CSc2nnc(CNc3cccc(C(F)(F)F)c3)n2Cc2ccco2)no1	-2.8%	2.8%	-3.8	-33.0%[inhibitor]	1.6	5.1
CCOC(=O)c1[nH]c2ccc(OC)cc2c1NC(C)=O	-4.2%	25.1µM*	2.5	0.2%	-1.0	-5.1
COc1cc(OC)c(C(=O)O/N=C(\N)c2ccccc2)cc1OC	16.3%	15.3%	.	-19.7%	.	2.0
CN1C(=O)c2cccc(N(C)C)c2C1=O	1.7%	0.4%	17.2	-20.5%	0.9	0.0
COc1cc(CN2CCN(CCOCCO)CC2)cc(OC)c1OC	12.3%	0.6%	22.8	-14.7%	0.3	-2.4
CCCc1c(C(=O)N/N=C(/C)c2ccncc2)nnn1-c1nonc1N	2.0%	-2.7%	9.5	0.7%[15.4 µM]	-1.6	0.5
COc1ccc(NC(=O)Nc2ncccc2C)cc1	-2.1%	-1.5%	-7.5	3.5%	0.1	4.0
CCc1ccc(NC(=O)Cn2cnc3c(=O)n(C)c(=O)n(C)c32)cc1	-9.1%	.	7.2	16.5%[15.4 µM]	0.0	1.9
CS(=O)(=O)c1cccc(C(=O)OCC(=O)NCc2cccs2)c1	5.7%	2.5%	9.2	-30.5%[inhibitor]	-0.2	.
O=C1CCCN1CCCNCC(=O)N1c2ccccc2Sc2ccccc21	1.1%	-2.4%	-2.9	6.6%	-0.5	?
Cc1ccc(C)c(NC(=O)C2CC(O)CN2C(=O)Oc2ccccc2)c1 (stereo unspecified)	-13.7%	0.1%	-14.2	28.5%[15.4 µM]	-0.6	2.4
Cc1c(C)n(C)c2ccc(C(=O)NCCCN3CCOCC3)cc12	-2.8%	-18.8%	3.2	-11.1%	-0.6	3.4
CC(C)(C)N1C(=O)[C@H]2[C@@H](c3ccc(Br)cc3)N3C(=O)N(c4ccc(Br)cc4)C(=O)[C@@]3(Cc3ccccc3)[C@H]2C1=O	-4.8%	-4.0%	20.6	.	0.7	-7.0
Nc1ccc(C(=O)c2ccc3c(c2)OCCO3)cc1N	-9.0%	1.3%	-5.4	?	-0.6	.
COc1ccc(NC(=S)N2N=CCC2c2ccccc2)cc1 (stereo unspecified)	2.1%	0.0%	-4.0	10.3%	-0.5	-0.6
O=C(Cc1ccccc1Cl)N/N=C/c1cccnc1	1.7%	-0.8%	31.8	-6.8%	1.0	.
